# BmaI1 enzyme = BmaI1 acyl-homoserine lactone synthase inhibition – biochemical, fluorescence intensity, with counterscreen (AID 720554); BmaI1 enzyme assay, fluorescence intensity; active compounds read high; test concentration not given here; a few actives read low; strong numbers were not always called active; actives 0.4% (n = 12,000); inhibition, %;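 active = both replicates within 2 robust z-scores of the inhibited control and a quiet counterscreen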;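 also: 0% = uninhibited enzyme and 100% = inhibited control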
# BmaI1 enzyme counterscreen = further read-out of BmaI1 enzyme, marked with its call; inhibition, %; measured here: counterscreen; design of the counterscreen not given here;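 first of two replicates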
# Active calls of the source: *. The list is partial (hit frequency here may not be typical).
# Values run as follows: BmaI1 enzyme, BmaI1 enzyme counterscreen
Cc1cc(C)c(C#N)c(SCC(=O)N(CC(C)C)C2CCS(=O)(=O)C2)n1 (centres undefined)
 : 2, 6
c1cncc(C2CCCN2)c1 (centres undefined)
 : 5, 14
Cc1ccc(C(=O)OCC(=O)C23CC4CC(CC(C4)C2)C3)c(O)c1
 : 10, 2
COCc1c(C(=O)OCC(=O)Nc2cc(-c3ccccc3)nn2-c2ccccc2)oc2ccccc12
 : 3, -6
N#Cc1ccc(NC(=O)CCCSc2nc3ccccc3s2)cc1
 : 9, 1
COc1ccc(N2CCN(c3ccc(NS(=O)(=O)c4ccccc4)nn3)CC2)cc1
 : 57, -14
CN1/C(=C\C(=O)COC(=O)C2CC(=O)N(Cc3ccccc3)C2)C(C)(C)c2ccccc21 (centres undefined)
 : 14, 0
O=c1ccc(S(=O)(=O)N2CCCC2)cn1Cc1nc2ccccc2s1
 : 1, -8
CCC(C)(C)NC(=O)c1ccc2c(=O)n3c(nc2c1)CCC3
 : -3, -2
Cc1nn2c(Br)c(C34CC5CC(CC(C5)C3)C4)nc2s1
 : 26, 12
Cc1cccc(NC(=O)CO/N=C/c2cccs2)c1
 : 11, 5
Cc1cccn2c(=O)c(/C=N/NC(N)=S)c(N3CCCC3)nc12
 : -24, -35
CCOC(=O)C1(CCCCCCOc2ccc(Cl)cc2)CO1 (centres undefined)
 : 6, 11
N#Cc1ccccc1OCC(=O)NC12CC3CC(CC(C3)C1)C2
 : 8, 7
COc1cccc(CNC(=O)c2ccc(S(=O)(=O)N3CCCC3)cc2)c1
 : 14, 2
CCOC(=O)c1sc(N)c(C#N)c1CSc1nc(-c2ccccc2)cs1
 : 10, 6
O=C(Cn1[nH]c(=O)c2ccccc2c1=O)NCCCN1CCCC1=O
 : 12, 9
CCOC(=O)C1CCN(c2nc3ccccc3nc2C(C#N)C(=O)NCCc2ccc(OC)c(OC)c2)CC1 (centres undefined)
 : 12, 14
Cc1cn([C@H]2C[C@H](N=[N+]=[N-])[C@@H](CO)O2)c(=O)[nH]c1=O
 : -3, 2
Cc1ccc(S(=O)(=O)N2CCC[C@H]2C(=O)OCC(=O)N2c3ccccc3NC(=O)C2(C)C)cc1
 : 10, 4
NNC(=O)c1ccc(CSc2n[nH]c(=O)[nH]c2=O)cc1
 : -28, -22
COc1ccccc1/C=N/NC1=NCCCCC1
 : 8, 5
CC(=O)Nc1sc(C)c(C)c1C(=O)OCC(=O)c1cc(C)n(-c2ccc3c(c2)OCCO3)c1C
 : 11, 11
COc1ccccc1NC(=O)Cc1nc(CSc2nc(C)cs2)cs1
 : -2, -4
Cc1cc(C(=O)CN2CCCC2)c(C)n1-c1ccc(F)cc1
 : 22, 2
COC1=CC(=O)C[C@@H](C)[C@]12Oc1c(Cl)c(OC)cc(OC)c1C2=O
 : 6, 12
CC(C(=O)Nc1ccc(S(=O)(=O)N2CCOCC2)cc1)N1CCN(c2ccccn2)CC1 (centres undefined)
 : -2, 1
O=C(COC(=O)Cc1cccs1)NCc1ccc2c(c1)OCO2
 : 15, 15
CC1CCCC(NC(=O)CSc2ncn[nH]2)C1C (centres undefined)
 : 2, 10
CC(CN1c2ccccc2Sc2ccccc21)N(C)C (centres undefined)
 : 10, 5
N#Cc1ccc(COC(=O)c2ccc(-n3cnc4ccccc43)cc2)cc1
 : -2, 0
COc1cccc(OC)c1C(=O)OCc1ccccc1C#N
 : -12, -8
O=C(Nc1ccncc1)c1cccc(S(=O)(=O)N2CCCC2)c1
 : -1, 4
O=C(NCC1COc2ccccc2O1)c1cccs1 (centres undefined)
 : 8, 6
O=C(CCCn1c(=O)oc2ccccc21)NNc1c(F)c(F)cc(F)c1F
 : -18, 2
Cc1ccc(C(C)C)c(OCC(=O)OCC(N)=O)c1
 : 6, 2
Cc1ccc(C(=O)NC2CN3CCC2CC3)cc1NC(=O)c1ccco1 (centres undefined)
 : 12, 8
Cc1cccc(OCc2nnc(SCCN3C(=O)c4ccccc4C3=O)o2)c1
 : 0, 2
O=C1CCCCCN1Cc1nnc(SCN2C(=O)c3ccccc3C2=O)n1-c1ccccn1
 : 1, 6
CC(C)(C)C(=O)NCc1ccc(C(=O)CSc2nnc(-c3cccs3)n2C2CC2)s1
 : 28, 10
O=C(NCCN1C(=O)S/C(=C\c2ccc(Cl)cc2)C1=O)c1oc2ccccc2c1CSc1ncn[nH]1
 : 12, 13
CC(NC(=O)c1ccc(-n2cccc2)cc1)c1ccccc1 (centres undefined)
 : 17, -2
CC1(C)C2CC=C(/C=N/NC(=O)NC3CCCCC3)C1C2 (centres undefined)
 : 26, 20
CCc1cc2c(SCC(=O)N(C)C3CCS(=O)(=O)C3)ncnc2s1 (centres undefined)
 : 12, 5
Cc1cc(C)n2nc(SCc3ccccc3C(=O)N3CCN(c4ccc(F)cc4)CC3)nc2n1
 : 12, 4

# Ordered by molecular weight (rising): some entries from above
# Values run as follows: BmaI1 enzyme, BmaI1 enzyme counterscreen
Cc1ccc(C(C)C)c(OCC(=O)OCC(N)=O)c1
 : 6, 2
CC(NC(=O)c1ccc(-n2cccc2)cc1)c1ccccc1 (centres undefined)
 : 17, -2
O=C(Nc1ccncc1)c1cccc(S(=O)(=O)N2CCCC2)c1
 : -1, 4
N#Cc1ccc(COC(=O)c2ccc(-n3cnc4ccccc43)cc2)cc1
 : -2, 0
O=C(CCCn1c(=O)oc2ccccc21)NNc1c(F)c(F)cc(F)c1F
 : -18, 2
O=C1CCCCCN1Cc1nnc(SCN2C(=O)c3ccccc3C2=O)n1-c1ccccn1
 : 1, 6
O=C(NCCN1C(=O)S/C(=C\c2ccc(Cl)cc2)C1=O)c1oc2ccccc2c1CSc1ncn[nH]1
 : 12, 13

# Next section
# Values run as follows: BmaI1 enzyme, BmaI1 enzyme counterscreen
O=C(CN1C(=O)C2CC=CCC2C1=O)N1CCSC1=NCc1ccccc1 (centres undefined)
 : 18, 9
O=C(CSc1nncn1-c1ccccc1)NCC(F)(F)F
 : -14, -2
CCn1c(CCC(=O)N2CCN(c3ccccn3)CC2)nc2cc(S(N)(=O)=O)ccc21
 : 98*, -0.5*
Brc1ccc(-c2cc3n(n2)CCc2nc4ccccc4n2-3)cc1
 : 2, 8
O=C(Cc1c[nH]c2ccccc12)OCCOc1ccccc1
 : 0, -4
Cc1nn(-c2ccc(F)cc2)c(Cl)c1/C=C/C(=O)N1CCNC(=O)C1
 : -4, -8
CC(Sc1nncn1C)C(=O)NCCC1=CCCCC1 (centres undefined)
 : -4, -10
O=C(CN1CCN(c2ccccc2)CC1)NC(=O)Nc1ccc2c(c1)OCCO2
 : 6, 4
COc1cc2c(cc1OC)CN(C(C)C(=O)NC(C)(C#N)C(C)C)CC2 (centres undefined)
 : 7, -6
CC(N=C1SCCN1C(=O)c1ccc(NC(N)=O)cc1)c1ccccc1 (centres undefined)
 : 22, 12
Cc1noc(C)c1CN(C(=S)Nc1cccc(Cl)c1)c1ccccc1
 : -7, -4
CC(C)[C@H](NC(=O)Cc1ccccc1)C(=O)OCn1nnc2ccccc2c1=O
 : 12, 8
COc1cccc(NC(=O)CN(C)C(=O)Cc2ccccc2F)c1
 : 11, 2
Cc1nc2ccc(NC(=O)C3=NN(C)C(=O)CC3)cc2s1
 : 7, 10
O=C(CSc1nnc(-c2ccc(Cl)cc2Cl)n1Cc1ccco1)c1ccc[nH]1
 : 20, 10

# Single records, from the list above:
# CCn1c(CCC(=O)N2CCN(c3ccccn3)CC2)nc2cc(S(N)(=O)=O)ccc21 is entered as BmaI1 enzyme = 98*; BmaI1 enzyme counterscreen = -0.5*
# O=C(CN1CCN(c2ccccc2)CC1)NC(=O)Nc1ccc2c(c1)OCCO2 is entered as BmaI1 enzyme = 6; BmaI1 enzyme counterscreen = 4

# (list continues)
# Values run as follows: BmaI1 enzyme, BmaI1 enzyme counterscreen
Cc1ccc(S(=O)(=O)NC(=O)Nc2[nH]n(-c3ccccc3)c(=O)c2C2=NCCCCC2)cc1
 : 34, 3
O=C(NCc1ccco1)c1ccccc1NCCOc1ccc(Cl)cc1
 : 14, 14
CC(NC(=O)CSc1n[nH]c(N)n1)C1CC2CCC1C2 (centres undefined)
 : 4, -2
C=CCn1c(C)cc(C(=O)COC(=O)C2CC(=O)N(Cc3ccccc3)C2)c1C (centres undefined)
 : 6, 1
COc1ccc(CCC(=O)Nc2cc(Cl)ccc2Sc2nncn2C)cc1
 : 10, 3
Cc1sc2ncnc(OCC(=O)N3CC(C)CC(C)C3)c2c1C (centres undefined)
 : 16, 16
Cc1cccc(C)c1NC(=O)CNC(=O)C(C)Oc1ccccc1C#N (centres undefined)
 : -9, 8
Cc1cc(Cl)nc(C(C)C)n1
 : 12, 4
CC(C)N(Cn1nc(-c2ccccc2)n(-c2ccccc2)c1=S)C(C)C
 : 73, 47
C=C(C)CSc1nc2ccccc2s1
 : 8, -4
CS(=O)(=O)c1ncc2c(n1)c(=O)c(C#N)c1[nH]c3ccccc3c(=O)n12
 : -5, -7
CN(C)C1=C(C#N)C(c2ccccc2)=NP(N(C)C)(N(C)C)=N1
 : 6, 8
OCC1CCCN(c2ncc(C(F)(F)F)cc2Cl)C1 (centres undefined)
 : -16, 2
Cc1ccc(OCCN2C(=O)C(C)N(c3ccc(C)cc3)C2=O)cc1 (centres undefined)
 : 11, 4
Cc1cc(NC(=O)/C=C/c2ccco2)n(-c2nc3ccccc3n2Cc2ccc(Cl)c(Cl)c2)n1
 : 10, 0
COc1ccccc1C(=O)COC(=O)C(C)N=C1NS(=O)(=O)c2ccccc21 (centres undefined)
 : 20, 12
O=C(CNc1ccccc1C(=O)NCc1ccco1)Nc1ccccc1Cl
 : 10, 10
CSC1=NC2(CCCCC2)C2=C(CCCC2)N1
 : 5, -23
O=C(Cn1cnc2ccccc2c1=O)N1CCc2ccccc21
 : -4, -5
CC(=O)OCC(=O)[C@@]1(O)CC[C@H]2[C@@H]3CCC4=CC(=O)CC[C@]4(C)[C@H]3[C@@H](O)C[C@@]21C
 : 2, 12
COc1cc2nc(CN3CCCC3c3cccs3)[nH]c(=O)c2cc1OC (centres undefined)
 : 7, 2
CC(OC(=O)c1ccncc1)C(=O)Nc1ccc(N2CCOCC2)cc1 (centres undefined)
 : 14, -2
O=C(OCc1cc(=O)oc2cc(O)ccc12)c1ccc(Br)o1
 : 14, 8
CC(C)(C)C(=O)N1CCC(C(=O)NCc2ccco2)CC1
 : 8, 6
Nn1c(SCC(=O)NCc2ccc3c(c2)OCO3)nnc1C1CC1
 : 14, 10
Cc1cccc(OCc2nnc(SCc3csc(Nc4ccccc4C)n3)o2)c1
 : 38, 12
CCn1c(SCc2cc(=O)oc3cc(O)ccc23)nc2ccccc21
 : 26, 14
CC1CN(C(=O)C(C)Sc2nnnn2C)CC(C)O1 (centres undefined)
 : 10, 10
COc1cc(CN(C)C(C)C(=O)NC2CCCCC2)ccc1OC(F)F (centres undefined)
 : 14, 8
Cc1nn(-c2ccccc2)c(Cl)c1CSc1nnc(N)s1
 : -2, 0
COc1ccc(N2CCN(C(=S)Cc3ccccc3)CC2)cc1
 : 8, 5
COC(=O)c1ccccc1NC(=O)COC(=O)c1ccccc1F
 : 11, 8
Cn1c(O)c(N=NC=C2C(=O)CC(C)(C)CC2=O)c2ccccc21
 : -3, 4
O=C(COC(=O)c1cc(NS(=O)(=O)c2cccs2)ccc1O)NC1CCCC1
 : 70, 6
CN(C)C(=O)NC1CCS(=O)(=O)C1 (centres undefined)
 : 8, 3
CCN(C(=O)CSc1nnc(CSc2nc3ccccc3s2)n1C)C1CCCCC1
 : 4, 0
CNCc1ccco1
 : 8, 0
CCOC(=O)/C=C1\SCC(=O)N1CCN(C)Cc1ccc(SC)cc1
 : 7, 10
COc1cc(OC)c(OC)cc1CNC(=O)CCc1c(C)noc1C
 : 11, 0
N#CCCn1cc(CNCCCn2cnc3ccccc32)c(-c2ccccc2)n1
 : 26, 12
COCCn1c(SCC(=O)c2ccc(F)cc2)nc2ccccc21
 : 9, 8
C1=C(c2ccccc2)CCN(Cc2nnc(-c3ccco3)o2)C1
 : 8, 0
CCNCC(=O)Nc1ccc(S(N)(=O)=O)cc1
 : 2, 2
O=C(O)COc1ccc(C2SCCCS2)cc1
 : -56, -2
CCOc1cc(C#N)ccc1OCC(=O)N1c2ccccc2NC(=O)CC1C (centres undefined)
 : 18, 6
Cc1cc(C(=O)CSc2nnc(N)s2)c(C)n1CCc1ccc(Cl)cc1
 : 12, -2
COc1ccccc1-n1cnnc1SCc1cccc(Cl)c1
 : 10, 1
COC(=O)CNC(=O)c1n[nH]c(=O)c2ccccc12
 : 4, 5
CS(=O)(=O)N1CCCc2cc(C(=O)CSc3nnc(CN4CCCC4=O)o3)ccc21
 : 8, 8
O=C(O)C1(S(=O)(=O)c2ccc(Br)cc2)CCCC1
 : 10, 4
CN(C)S(=O)(=O)c1ccc(C(=O)N2CCN(Cc3ccc4c(c3)OCO4)CC2)cc1
 : 0, 2
CN(C)S(=O)(=O)c1ccc(=O)n(CC(=O)Nc2ccc3[nH]c(=O)[nH]c3c2)c1
 : -2, 0
CC1(C)O[C@@H]2[C@@H](CO[C@@]3(COS(N)(=O)=O)OC(C)(C)O[C@@H]23)O1
 : 10, 3
CC1Cc2ccccc2N1S(=O)(=O)c1cccc(C(=O)NCc2ccco2)c1 (centres undefined)
 : 22, 14
Cc1cc(C(=O)CSc2nc3cc(S(=O)(=O)N(C)C)ccc3o2)c(C)n1-c1ccc2c(c1)OCO2
 : 8, -4
O=C(c1ccc(Cl)nc1)N1CCN(C(c2ccccc2)c2ccccc2)CC1
 : 6, 6
CC12CCC(=O)N1C(C(=O)OCc1nnc(-c3ccccc3)o1)CS2 (centres undefined)
 : 15, 6
COC(=O)c1cc(COC(=O)c2ccc3ncsc3c2)oc1C
 : 0, -1
CN(C)C1NC(=O)c2cc(-c3ccccc3)sc2N1 (centres undefined)
 : 6, -2
O=C(Cc1ccc2c(c1)OCCO2)N1CCN(C(=O)C2CCCO2)CC1 (centres undefined)
 : -1, -4
Cc1ccccc1-n1cc[nH]c1=S
 : 24, 4

# 2 of the compounds above, with each value named:
COC(=O)c1cc(COC(=O)c2ccc3ncsc3c2)oc1C
  BmaI1 enzyme = 0
  BmaI1 enzyme counterscreen = -1
CN(C)C1NC(=O)c2cc(-c3ccccc3)sc2N1 (centres undefined)
  BmaI1 enzyme = 6
  BmaI1 enzyme counterscreen = -2

# Source: PubChem
